# Assay outcomes deposited in PubChem by several laboratories.
# ALR H2O2 inh – inhibitors of human ALR sulfhydryl oxidase, primary screen, biochemical, H2O2 detection, HRP-luminol luminescence, single point. purified ALR, DTT oxidation. inhibition, % (no concentration beside the values). actives 3.8% (n = 290,000). AID 485317, 2010;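 active = mean and each replicate at 75% or more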;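 also: stock transfer was 7.5 nL into about 7.5 µL; 0% = neutral wells and 100% = wells with inactivated enzyme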
# Beta2AR agonist – beta2AR agonists driving receptor internalization, primary screen, cell-based, FAP fluorogen, flow cytometry; response, % (test concentration not listed); Am2.2-beta2AR cells; reference of the scale not given here; Beta-2 adrenergic receptor (Homo sapiens), P07550; actives 0.43% (n = 340,000);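 active = response above a set limit, near 3 SD of response in nonfluorescent compounds, cut at about 42% in these data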;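 also: stock transfer was 100 nL into about 11 µL; a reference agonist was the positive control; negative values mostly stem from fluorescent compounds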
# FGF22 binding – binders of human FGF22 protein, primary screen, FGF22 synaptogenesis inhibitor project, biophysical, thermal shift, single point. Fibroblast growth factor 22 (Homo sapiens), Q9HCT0. recombinant FGF22 thermal shift, SYPRO orange fluorescence; percent of sucrose octasulfate shift, DMSO zero. calls only at 9.99 µM. actives 1.5% (n = 340,000);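 active = melting point raised past a set limit in the mean and every replicate; three in four hits are not shown here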
# Target sequence (Q9HCT0 whole entry, looked up): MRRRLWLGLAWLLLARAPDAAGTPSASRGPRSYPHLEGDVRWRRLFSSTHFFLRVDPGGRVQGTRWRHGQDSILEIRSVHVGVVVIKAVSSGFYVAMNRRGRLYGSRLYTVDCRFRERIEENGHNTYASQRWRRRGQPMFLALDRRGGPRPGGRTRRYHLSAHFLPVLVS
# LANA-H2A inh – blockers of LANA interaction with H2A/H2B – biochemical, FP readout, HTS, primary screen. Protein LANA1 (Human herpesvirus 8 type P (isolate GK18)), Q9QR71. cell-free LANA-H2A/H2B peptide, fluorescence polarization. inhibition, % (test concentration not listed). actives 0.6% (n = 320,000). AID 2629, 2010; in the data active = inhibition mostly above about 10%, no sharp cut-off; inactive = mostly below about 6.7%;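 also: stock transfer was 7.5 nL into about 10 µL; 0% = median of vehicle wells and 100% = median of positive control wells; one replicate is shown; the record names a cut of 25% in any replicate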
# UCH37 DUB inh – inhibitors of human UCH37 deubiquitinase, primary screen, biochemical, Ub-AMC cleavage, fluorescence; actives 0.33% (n = 330,000); purified proteasome/UCH37; inhibition, % (test concentration not listed); Ubiquitin carboxyl-terminal hydrolase isozyme L5 (Homo sapiens), Q9Y5K5; AID 588478, 2011;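 active = mean of two replicates above 20%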;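 also: 0% = compound-free wells with enzyme and 100% = wells lacking proteasome; stock transfer was 100 nL into about 20 µL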
# Target sequence (Q9Y5K5 whole entry, looked up): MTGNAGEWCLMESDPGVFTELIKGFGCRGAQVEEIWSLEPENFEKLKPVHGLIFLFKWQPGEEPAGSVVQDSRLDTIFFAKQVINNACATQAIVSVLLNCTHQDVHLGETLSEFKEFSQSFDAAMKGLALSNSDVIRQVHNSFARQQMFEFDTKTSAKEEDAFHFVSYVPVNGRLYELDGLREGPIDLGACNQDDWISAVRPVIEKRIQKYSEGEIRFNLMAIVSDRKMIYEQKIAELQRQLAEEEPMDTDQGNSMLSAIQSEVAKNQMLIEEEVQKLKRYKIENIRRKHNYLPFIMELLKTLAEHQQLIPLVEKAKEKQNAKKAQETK
#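 system = Proteasome-associated human UCH37 deubiquitinase | amount = 0.15 nM proteasome as dispensed | medium = pH 7.4 Tris-HCl (50 mM) with ovalbumin, ATP-MgCl2, DTT | incubation = 30 min preincubation with enzyme, 25 min cleavage at room temperature | detection = AMC fluorescence 355/460 nm | read-out basis = percent inhibition | controls = no-proteasome and no-compound wells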
# Ecoli growth – E. coli growth inhibition, primary screen, OD600 | actives 0.21% (n = 330,000) | Escherichia coli growth, 23 h; stronger effect = lower value | AID 1053175, 2014 | OD600 absorbance (test concentration not listed);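 active = OD600 absorbance below the run mean of sample wells minus 3.6 SD, in any replicate, cut at about 0.56 in these data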;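 also: stock transfer was 300 nL into about 60 µL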
# HNF4A DNA FP – change in binding of human HNF4A to DNA, primary screen, biochemical, fluorescence polarization, FITC-DNA | AID 1224865, 2016 | Hepatocyte nuclear factor 4-alpha (Homo sapiens), P41235 | 1 h | activity change, % at 10 µM | actives 0.3% (n = 360,000); in the data active = activity change above about 30%, passing the limit was not always enough;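 also: controls were the assay level and a saturating level of protein; the project sought stronger binding though the title names inhibitors; some compounds called inactive have numbers as strong as hits; positive values seem to mean higher polarization but the record does not say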
# Target sequence (P41235 whole entry, looked up): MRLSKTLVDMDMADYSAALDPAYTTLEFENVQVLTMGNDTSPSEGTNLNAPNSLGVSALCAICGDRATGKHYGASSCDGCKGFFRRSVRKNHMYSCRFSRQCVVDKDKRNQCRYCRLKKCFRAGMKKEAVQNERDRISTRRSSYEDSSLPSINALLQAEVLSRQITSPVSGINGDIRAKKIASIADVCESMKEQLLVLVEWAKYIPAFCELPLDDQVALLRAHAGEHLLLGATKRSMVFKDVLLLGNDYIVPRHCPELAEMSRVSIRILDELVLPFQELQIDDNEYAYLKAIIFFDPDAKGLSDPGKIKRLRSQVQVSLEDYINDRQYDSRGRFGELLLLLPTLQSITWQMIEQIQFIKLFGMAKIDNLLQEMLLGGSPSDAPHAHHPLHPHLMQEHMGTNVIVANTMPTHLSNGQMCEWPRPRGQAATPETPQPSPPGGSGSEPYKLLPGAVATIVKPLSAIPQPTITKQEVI
# An asterisk follows results filed as active; i = inactive; · = not tested or not shown; & = joins results of further samples. An excerpt (hit frequency here may not be typical).
SMILES,ALR H2O2 inh,Beta2AR agonist,FGF22 binding,LANA-H2A inh,UCH37 DUB inh,Ecoli growth,HNF4A DNA FP
Cc1cccc(N(C(=O)Cn2nnc3ccccc32)C(C(=O)NC(C)(C)C)c2ccsc2)c1 (centres undefined),4,1,i,-3.4,2.1,0.68,-1.7
O=S(=O)(c1ccccc1)N1CCN(Cc2cccc(Br)c2)CC1,-7,2,i,-4.3,4.1,0.68,3.2
CCOc1ccc(CCNC(=O)C2CCCN(c3nnc(-n4cccc4)s3)C2)cc1OCC (centres undefined),-2,-7,·,-0.8,-0.9,0.75,2.0
COc1ccc(-n2nnnc2SCC(=O)Nc2ccc3c(c2)OCCO3)cc1OC,-7,17,i,-5.7,2.9,0.62,-1.6
Cc1noc(C)c1CCC(=O)NC1CCCN(Cc2ccc(Cl)cc2)C1 (centres undefined),-4,11,i,3.5,2.4,0.67,1.8
CSc1ccccc1-n1nnnc1SCC(=O)NCc1cccs1,-5,10,·,0.3,3.3,0.77,1.2
COc1ccc(/C=N/NC(=O)c2ccc(COc3ccccc3Cl)o2)c(OC)c1C,-2,-1,·,-3.6,·,·,-0.4
C(=N\n1cncn1)/c1ccc(N2CCOCC2)cc1,-8,2,·,1.3,·,·,6.8
CNC(=O)CSc1nc2cc(S(=O)(=O)Nc3ccccc3OC)ccc2o1,-4,-6,i,2.6,6.3,0.67,3.7
Cc1cc(C(=O)Nc2ccc3c(c2)OCCO3)c2ccccc2n1,·,2,i,-0.4,4.8,0.72,3.5
C/C(=N\NC(=O)c1ccccc1F)c1ccc2c(c1)Nc1ccccc1S2,54,16,·,-1.8,·,·,13
Cc1ccc2c(c1)C(c1ccccc1)N(C(=O)c1ccc3c(c1)OCO3)CC(=O)N2 (centres undefined),1,-4,i,1.5,4.3,0.71,-10
CCCn1c(=N)n(CC(=O)c2ccco2)c2ccccc21,-4,-6,·,0.3,4.9,0.7,-4.6
Cc1ccc(NC(=O)Cn2nnc3ccccc32)cc1,-11,2,i,0.6,1.7,0.69,-2.0
Cc1c(-n2c(SCC(N)=O)nc3ccccc3c2=O)c(=O)n(-c2ccccc2)n1C,-12,-9,i,-2.5,4.4,0.67,-1.9
COc1cccc(CC(=O)Nc2nc(-c3ccc(OC)c(OC)c3)cs2)c1,-3,12,i,4.3,1.6,0.66,0.6
COc1ccc(NC(=O)CSCC(=O)N(C)CCOc2ccc(Cl)cc2)cc1,0,1,i,-0.9,-0.2,0.72,-2.8
Cc1ccccc1-c1nnc(SCC(=O)N(CC(C)C)c2c(N)n(CC(C)C)c(=O)[nH]c2=O)n1C,1,-3,i,-0.3,3.8,0.67,-4.2
Cc1ccc2c(c1)NC(C(C)(C)C)CO2 (centres undefined),-3,-6,·,-5.5,2.7,0.77,1.8
Cc1ccc(Cl)c(NC(=O)CCl)c1Cl,-9,-1,i,6.1,6.1,0.7,-26

# The list goes on, overlapping the part above by 4 compounds.
SMILES,ALR H2O2 inh,Beta2AR agonist,FGF22 binding,LANA-H2A inh,UCH37 DUB inh,Ecoli growth,HNF4A DNA FP
COc1ccc(NC(=O)CSCC(=O)N(C)CCOc2ccc(Cl)cc2)cc1,0,1,i,-0.9,-0.2,0.72,-2.8
Cc1ccccc1-c1nnc(SCC(=O)N(CC(C)C)c2c(N)n(CC(C)C)c(=O)[nH]c2=O)n1C,1,-3,i,-0.3,3.8,0.67,-4.2
Cc1ccc2c(c1)NC(C(C)(C)C)CO2 (centres undefined),-3,-6,·,-5.5,2.7,0.77,1.8
Cc1ccc(Cl)c(NC(=O)CCl)c1Cl,-9,-1,i,6.1,6.1,0.7,-26
COc1ccc(C2C(C(=O)Nc3cccc(OC)c3)c3ccccc3C(=O)N2C)cc1 (centres undefined),-5,3,i,-2.8,-0.7,0.67,-3.0
Cc1ccc(SCCC(=O)NC(C)C)cc1,15,14,·,-3.8,4.0,0.74,-0.3
CCOc1ccc(-c2nc(CSCC(=O)NCC3CCCO3)c(C)o2)cc1 (centres undefined),99*,-10,i,6.8,1.1,0.65,-1.3
O=C(Nc1ccn(Cc2c(F)c(F)c(F)c(F)c2F)n1)c1ccc(COc2ccccc2Cl)cc1,-28,-3,·,-4.4,4.8,0.77,-4.8
CCCCN(CC)C(=O)CSc1nc2c(sc(=S)n2-c2ccc(OCC)cc2)c(=O)[nH]1,·,9,i,·,13,0.65,-1.5
CC(=O)N(CN1C(=O)CCC1=O)c1cccc(Cl)c1,1,-40,i,-0.8,0.6,0.66,0.0
COc1cc(C(=O)OCC(=O)Nc2c(C)n(C)n(-c3ccccc3)c2=O)c([N+](=O)[O-])cc1OC,-1,-11,i,·,4.6,0.72,-2.1
COc1cc2c(C#CCCO)c(-c3ccsc3)oc(=O)c2cc1OC,-1,13,i,10,-3.6,0.7,-2.8
COCCN(C(=O)C1CCC1)c1nnc(-c2cccnc2)s1,-7,-17,·,5.2,1.5,0.72,-0.6
Cc1ccc(S(=O)(=O)N(C)CCCC(=O)Nc2ccccn2)cc1,-3,-23,i,-2.4,-3.2,0.7,-2.1
O=C(OCCOc1cccc(Cl)c1)c1cc(S(=O)(=O)N2CCOCC2)ccc1F,-2,-2,i,2.4,1.3,0.72,-0.1
CCOC(=O)c1c(C)n(-c2ccc(C)cc2)c2ccc(O)c(CN(C)C)c12,-15,9,i,-18,5.4,0.65,-2.2
CCc1ccc(N2CC(C(=O)Nc3cccnc3)CC2=O)cc1 (centres undefined),-2,-10,·,2.6,3.7,0.77,3.1
COc1ccc(S(=O)(=O)NCCSC(C)(C)C)cc1Cl,-1,-15,·,2.5,4.5,0.69,2.3
Cc1nc(NC(=O)c2ccc(F)cc2)sc1C(=O)Nc1ccc2c(c1)CCC2,-1,-9,·,-3.5,-24,0.66,-1.1
Cc1occc1-c1nnc(SCC(=O)N2CCCCC2)n1C,·,2,i,·,-0.1,0.63,-3.4
CC(C)C[C@H](NC(=O)[C@@H]1O[C@H]1C(=O)O)C(=O)NCCCCN=C(N)N,-4,-2,i,-4.6,1.7,·,2.7
O=C(CSc1nnc(-c2cccnc2)n1Cc1ccco1)N1CCc2ccccc21,21,-16,·,-0.3,-2.1,0.68,0.3
N#Cc1ccccc1NC(=O)COc1ccccc1C(=O)Nc1ccccc1,-1,5,i,-0.8,-0.3,0.6,-1.1
CCCn1nc(NS(C)(=O)=O)c2cc3cccc(C)c3nc21,·,0,·,0.2,3.8,0.75,4.6
O=C(c1ccc2nc(Cc3ccccc3F)oc2c1)N1CC[C@H](O)C1,60,-7,i,-3.3,-1.0,0.72,-0.2
CCOC(=O)CC(NC(=O)C1c2ccccc2Oc2ccccc21)c1ccc(C)cc1 (centres undefined),·,-2,·,·,-2.2,0.69,3.8
Cc1cc(OCC(=O)N(Cc2ccco2)C2CCS(=O)(=O)C2)ccc1Cl (centres undefined),·,-7,i,2.1,3.9,0.69,3.9
O=C1CN(S(=O)(=O)c2cccc(Cl)c2Cl)CCN1,·,1,i,·,1.4,0.7,5.9
Cc1cccc(N2CCN(C(=O)Cc3c(C(=O)O)[nH]c4ccc(Cl)cc34)CC2)c1C,0,2,·,-6.0,-2.6,0.71,1.3
COc1ccc(CCNC(=O)C(=O)Nc2ccc3c(c2)OCO3)cc1OC,-6,3,i,-15,-1.6,0.72,-1.7
COC(=O)c1c(NC(=S)NNS(=O)(=O)c2ccc(OC)cc2OC)sc2c1CCCCCC2,-1,-3,i,-1.3,-4.4,0.64,0.3
CN1C(=O)Cc2cc(S(=O)(=O)N3CCN(c4ccccc4F)CC3)ccc21,9,-18,i,5.9,4.9,0.73,2.4
CN1C(=O)C(C)(C)c2cc(S(=O)(=O)N3CCCC(C(=O)NCc4ccc(F)cc4)C3)ccc21 (centres undefined),-4,-4,i,6.0,3.4,0.69,4.5
O=C(CC(=O)c1ccccc1)Nc1ccc2c(c1)OCCO2,1,6,·,-1.0,5.0,0.75,-3.5
COc1ccc(CNC(=O)C2CCN(S(=O)(=O)c3cc(OC)ccc3OC)CC2)cc1,-4,2,·,-4.1,3.1,0.71,-1.0
O=C(Nn1c(SCc2cccc([N+](=O)[O-])c2)nc2ccccc2c1=O)c1ccccc1,63,-3,·,-2.0,4.7,0.73,1.9
O=C(NCC1CCCO1)c1ccc2nc(N3CCCCC3)sc2c1 (centres undefined),0,-1,i,2.0,2.3,0.73,2.4
CC(=O)Nc1ccc2c(c1)C(=O)N(c1cccc3ccccc13)C2=O,46,-1,i,4.8,1.2,0.64,2.9
COCCCNC(=O)CC(NS(=O)(=O)c1ccc(Cl)cc1)c1ccc(OC)cc1 (centres undefined),-4,6,·,0.8,4.8,0.64,-3.8
CC(C)CCn1cnc2c(sc3nc4c(cc32)CSC(C)(C)C4)c1=O,·,-18,i,·,-8.0,0.71,-4.2
COc1ccc(C(=O)NCC(=O)OCC(=O)N2CCc3ccccc32)cc1,-1,5,i,2.4,3.8,0.68,0.7
Cc1ccc(C(=O)NCC(=O)O)cc1S(=O)(=O)N1CCCCC1,·,-3,·,0.7,2.2,0.7,-1.5
CC(=O)N1CCN(c2ccc(NC(=O)c3ccc(Br)o3)cc2Cl)CC1,-1,10,i,-7.5,7.2,0.68,3.2
CC(C)c1ccccc1OCC(O)CN(CC(O)COc1cccc2ccccc12)C(C)C (centres undefined),-12,18,i,0.4,-1.5,0.65,1.2
CN1C(C(=O)NCc2ccco2)CC2Cn3c(nc4cc(Cl)c(Cl)cc43)C21 (centres undefined),·,-2,i,1.1,-0.4,0.7,1.7
Cc1ccc(NC(=O)c2ccc(C)cc2)cc1,-1,0,i,0.7,1.4,0.57,0.8
OC1CCN(Cc2cccc(Oc3ccccc3)c2)CC1,98*,-9,·,6.9,3.2,0.65,2.2
CNc1ccc(OC(F)F)cc1C(=O)c1ccccc1,7,-2,·,-2.9,2.7,0.66,-3.6
Cc1ccc(-c2csc3nc[nH]c(=S)c23)cc1,97*,-3,·,-3.0,6.4,0.69,1.1
Cc1cccnc1NC(=O)Nc1ccc(F)cc1,-11,-2,·,-2.5,-1.1,0.64,-0.1
Cc1ccc(-n2cnnn2)c(S(=O)(=O)N2CCOCC2)c1,4,-3,·,1.7,0.3,0.67,0.6
O=C(CCC(=O)N/N=C/c1ccco1)N/N=C/c1ccco1,-3,-6,i,4.1,·,·,-4.5
C[n+]1cc[nH]c1SCC(=O)c1ccc(Cl)cc1,3,4,i,5.4,5.5,0.63,0.7
Cc1ccccc1C(=O)NC(C(N)=O)P(=O)(OC(C)C)OC(C)C (centres undefined),-4,-2,i,0.5,0.4,0.7,2.4
COCCNC(=O)c1onc(CSc2ccccc2)c1C(=O)O,-5,-9,i,3.8,3.2,0.67,-2.5
CCOc1ccc(C(=O)c2ccccc2C(=O)O)cc1OCC,3,9,i,-3.3,0.5,0.64,-0.4
COc1ccccc1N1CCN(C(=O)c2nn(-c3ccccc3OC)c(=O)c3ccccc23)CC1,·,-3,·,·,7.0,0.76,0.2
Oc1ccc(NC(=S)Nc2ccccc2)cc1,99*,-6&2,i,1.9&-0.3,3.7,0.7,4.4&1.5

# Exported with bars between the fields: entries from further up
SMILES | ALR H2O2 inh | Beta2AR agonist | FGF22 binding | LANA-H2A inh | UCH37 DUB inh | Ecoli growth | HNF4A DNA FP
CN1C(=O)Cc2cc(S(=O)(=O)N3CCN(c4ccccc4F)CC3)ccc21 | 9 | -18 | i | 5.9 | 4.9 | 0.73 | 2.4
Cc1ccc(NC(=O)c2ccc(C)cc2)cc1 | -1 | 0 | i | 0.7 | 1.4 | 0.57 | 0.8
